Compound activity (PubChem BioAssay)
INS promoter inh – TRM-6 insulin promoter activity inhibition; TRM-6 cells (human fetal islet line), insulin promoter-eGFP reporter, imaging; reporter expression induced with tamoxifen; inhibition, % at 2 µM; actives 0.9% (n = 130,000); AID 1273;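 active means inhibition above the mean plus 3 SD, with well images judged a real hit on visual review, cut at about 60% in these data, passing the limit was not always enough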
GALR2 ag – GALR2 (human) receptor agonism; O43603; actives 0.48% (n = 140,000); AID 803; GALR2-expressing cells, agonist activation read-out; activation, %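 (tested at 5 µM)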;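 active means above mean plus 3 SD of all compounds, about 5% in these data, not always enough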;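 further: 0% = vehicle buffer wells and 100% = reference agonist at full effect; tested in CHO reporter cells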
Target sequence (O43603 whole entry, looked up): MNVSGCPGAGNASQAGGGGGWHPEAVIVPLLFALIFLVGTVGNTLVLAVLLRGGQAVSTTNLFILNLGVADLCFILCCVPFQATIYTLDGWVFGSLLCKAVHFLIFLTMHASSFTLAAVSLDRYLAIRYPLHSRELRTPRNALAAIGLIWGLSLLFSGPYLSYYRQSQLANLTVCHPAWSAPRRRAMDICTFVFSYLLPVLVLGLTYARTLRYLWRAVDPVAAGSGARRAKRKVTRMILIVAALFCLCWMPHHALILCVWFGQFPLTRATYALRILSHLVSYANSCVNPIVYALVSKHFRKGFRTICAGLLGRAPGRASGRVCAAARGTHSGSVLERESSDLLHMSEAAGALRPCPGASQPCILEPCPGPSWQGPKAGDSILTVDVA
RGS16-Gao – RGS16-Galphao interaction regulator (human) | binding response (% of control), % at 10 µM | O15492+P09471 | actives 0.38% (n = 220,000) | AID 1441 | bead-based flow cytometry RGS16-Galphao binding, fluorescence; actives lie on both sides;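 active means below 25% or above 175%, edge rows of some plates excepted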;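 further: Galphao activated by GDP with aluminum fluoride before binding; 100% = wells without compound and 0% = beads without RGS; some results beyond the cut were filed as inactive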
Target sequence (O15492 whole entry, looked up): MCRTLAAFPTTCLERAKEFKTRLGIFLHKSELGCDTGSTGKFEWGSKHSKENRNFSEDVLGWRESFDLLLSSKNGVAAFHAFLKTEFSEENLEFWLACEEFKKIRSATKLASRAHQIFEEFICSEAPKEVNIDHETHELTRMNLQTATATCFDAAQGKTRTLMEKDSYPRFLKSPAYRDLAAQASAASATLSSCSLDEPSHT
Target sequence (P09471 whole entry, looked up): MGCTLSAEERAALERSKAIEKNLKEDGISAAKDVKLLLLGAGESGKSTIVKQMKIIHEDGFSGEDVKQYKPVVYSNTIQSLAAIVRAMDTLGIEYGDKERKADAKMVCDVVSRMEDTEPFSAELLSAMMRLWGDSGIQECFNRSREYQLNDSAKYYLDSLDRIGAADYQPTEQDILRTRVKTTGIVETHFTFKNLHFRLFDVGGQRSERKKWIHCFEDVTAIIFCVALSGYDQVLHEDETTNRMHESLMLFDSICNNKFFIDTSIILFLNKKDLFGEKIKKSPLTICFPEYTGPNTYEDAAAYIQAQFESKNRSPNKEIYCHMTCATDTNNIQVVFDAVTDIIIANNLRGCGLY
HSV replic up – HSV replication enhancement. actives 0.005% (n = 220,000). HSV replication augmentation in cells, fold increase. maximum fold increase;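 active means peak rise of 1.5-fold or more in the series; tested in PC3 cells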;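 further: first round at 10 µM; read as green reporter fluorescence; hits show the peak of a series up to 25 µM; 1 = signal of infected wells without compound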
PKD1 kinase inh – blocks activity of human protein kinase D1 | Q15139 | PKD1 kinase fluorescence polarization assay | inhibition, %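 (about 10 µM by stock and volumes)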 | actives 0.056% (n = 200,000) | AID 797;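 active means inhibition of 50% or more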;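 further: controls were vehicle for no effect and a reference inhibitor for full effect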
INS promoter inh cell count – recorded beside INS promoter inh, whose call it bears; normalized cell count, %; measured here: cell count, toxicity; reference of the scale not given here;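 cells exposed to compound for 48 h; stained nuclei by imaging scaled within each plate; lower means fewer cells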
HSV replic up primary fold – second read-out of HSV replic up, no call of its own (marks repeat the call); fold increase; compound at 10 µM; measured here: primary screen fold increase 10 uM; tested in PC3 cells;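 GFP signal in the first replicate; 1 = infected wells without compound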
* marks the source's active call; other numbers are inactive results; i = inactive; nt = no result given.

canonical_smiles	RGS16-Gao	INS promoter inh cell count	INS promoter inh	PKD1 kinase inh	HSV replic up primary fold	GALR2 ag	HSV replic up
CCOC(=O)c1ccc(NC(=O)C2CC2)cc1	103	135	-34	-13	0.83	-1.8	i
CC(C)N(C(=O)Cn1cc(SCC(=O)N2CCCC2)c2ccccc21)C(C)C	106	93	-78	-8	1	nt	i
CC(=O)Nc1ccc(S(=O)(=O)Oc2cccc(/C=N/N=C3/NC(=O)C(CC(=O)O)S3)c2)cc1 (centres undefined)	97	nt	nt	-1	1	nt	i
CCN(c1ccccc1)c1cc(C)nc2ncnn12	89	nt	nt	1	1.4	-1.5	i
CC(C)c1ccc(NC(=O)Cn2c(=O)oc3cccnc32)cc1	100	nt	nt	nt	0.94	nt	i
c1cn(CCCNc2ncnc3sc4c(c23)CCC4)cn1	103	nt	nt	-6	1	0.4	i
Cc1csc2nc(CNC(=O)c3cccc(C(F)(F)F)c3)cn12	102	nt	nt	1	0.91	0.6	i
O=C(CNC1CCCC1)Nc1cc(Cl)ccc1[N+](=O)[O-]	97	nt	nt	nt	0.89	nt	i
COc1ccc(CCNC(=O)c2nnn(CC(=O)Nc3cccc(F)c3)c2N)cc1OC	100	nt	nt	-4	0.93	nt	i
O=S(=O)(c1ccccc1)N1CCN=C1SCc1ccc(Cl)cc1	104	103	23	-13	nt	nt	nt
CCC(=O)N(Cc1cc2cc(OC)ccc2[nH]c1=O)c1ccccc1C	105	133	-79	2	0.9	-0.8	i
CCCCC1=CC2=CC(=O)C(C)(OC(=O)CCc3ccccc3)C(=O)C2=CO1 (centres undefined)	82	nt	nt	nt	0.98	nt	i
CCOc1ccc(C2CC(=O)NC(SCC(=O)OC)=C2C#N)cc1 (centres undefined)	106	nt	nt	-2	0.96	-1.3	i
CCOc1ccc(OCCOCCOc2c(Cl)cccc2Cl)cc1	nt	125	20	-2	0.96	-0.8	i
N#C/C(=C\C=C\c1ccccc1[N+](=O)[O-])c1nc(-c2ccc3c(c2)OCO3)cs1	99	109	12	-8	1.1	-2.7	i
COc1ccc(Cc2nnc(SCC(=O)c3ccccc3)o2)cc1	95	118	27	-6	0.91	-2.0	i
COc1ccc(C(=O)OCCNC(=O)c2c(Cl)nc3ccccn23)cc1	97	102	-15	-12	0.93	-0.7	i
Cc1ccc(S(=O)(=O)NC(CC(C)C)C(=O)Oc2ccc3c4c(c(=O)oc3c2)CCC4)cc1 (centres undefined)	53	110	-16	7	1.1	-0.9	i
C=C(C)Cc1c(C)nc(-c2ccccc2)[nH]c1=O	102	141	5	-7	0.91	0.1	i
CCc1ccc2c(c1)C1(SC(NC(C)=O)=NN1C(C)=O)C(=O)N2C(C)C (centres undefined)	97	112	30	-3	1	-0.1	i
Cn1c(N)c(C(=O)COC(=O)C2(c3ccc(Cl)cc3)CCCC2)c(=O)n(C)c1=O	103	64	-3	-5	0.87	-2.1	i
O=[N+]([O-])c1cccc(-c2ccc3nnc(SCc4ccccn4)n3n2)c1	97	nt	nt	1	0.95	nt	i
COc1ccc(OC)c(Nc2nc3nonc3nc2N2CCCC(C)C2)c1 (centres undefined)	107	137	-22	-8	0.98	-0.2	i
CCCCOc1ccc(CSc2nnc(C)n2N)cc1[N+](=O)[O-]	99	nt	nt	6	1.2	nt	i
Cc1nc(NNC(=O)c2ccc([N+](=O)[O-])cc2)cc(-c2ccccc2)n1	102	120	-13	-5	nt	-1.9	nt
COc1ccc(NC(=O)C2CC(=O)n3ncnc3N2)cc1 (centres undefined)	102	48	-35	-3	0.84	-0.1	i
c1ccc(-c2nc3c4ccccc4ccn3c2CN2CCCCC2)cc1	102	nt	nt	nt	0.94	nt	i
CCOC(=O)c1[nH]c2ccc(OC)cc2c1NS(=O)(=O)c1ccc(Cl)s1	104	79	28	-9	0.98	-1.5	i
O=C1OCC2OC(O)C(O)C(O)C2OC(=O)c2cc(O)c(O)c(O)c2-c2c(O)c(O)c3oc(=O)c4c(c(O)c(O)c5oc(=O)c2c3c54)-c2c1cc(O)c(O)c2O (centres undefined)	66	nt	nt	nt	1	nt	i
CC(c1ccco1)N(C(=O)COc1ccccc1[N+](=O)[O-])c1ccccn1 (centres undefined)	101	79	-40	-1	0.94	-2.5	i
COCCN1Cc2cccc(C(=O)Nc3cccc(C)c3C)c2C1=O	104	nt	nt	-13	0.95	-0.2	i
O=C(NN1CCOCC1)C12CC3CC(CC(C3)C1)C2	108	98	4	3	0.96	-2.7	i
O=C(Nc1nnc(Cc2ccc(Cl)cc2)s1)c1cccnc1	104	nt	nt	-2	0.86	nt	i
O=C(c1ccc(S(=O)(=O)N2CCCCCC2)cc1)N1CCN(c2ccccn2)CC1	96	76	48	-5	0.93	0.7	i
CN1C(=O)C2(Oc3ccccc3C3CC(c4ccccc4)=NN32)c2ccccc21 (centres undefined)	98	nt	nt	3	0.97	-1.4	i
Cc1ccc(/C=C/C(=O)N2CC(C)CC(C)C2)o1 (centres undefined)	92	90	-78	-7	0.87	-2.5	i
O=C(NCC1CCCO1)C(c1ccncc1)N(Cc1ccc(F)cc1)C(=O)CN1C(=O)c2ccccc2S1(=O)=O (centres undefined)	110	85	-33	15	0.9	-0.3	i
COC(=O)c1cc(=O)n(Cc2ccc3c(c2)OCO3)c(=Nc2ccccc2)s1	94	113	-40	9	0.75	-1.1	i
O=C(CN1CCN(c2ccccc2)CC1)N/N=C/c1cccc(F)c1	102	nt	nt	0	0.97	-2.2	i
O=C(NCc1ccc(F)cc1)Nc1cccc(Cl)c1	102	68	-25	-9	0.86	nt	i

Single records (already shown). Screens in order: RGS16-Gao, INS promoter inh cell count, INS promoter inh, PKD1 kinase inh, HSV replic up primary fold, GALR2 ag, HSV replic up
Entry for O=C(Nc1nnc(Cc2ccc(Cl)cc2)s1)c1cccnc1 → 104, nt, nt, -2, 0.86, nt, i
Entry for Cn1c(N)c(C(=O)COC(=O)C2(c3ccc(Cl)cc3)CCCC2)c(=O)n(C)c1=O → 103, 64, -3, -5, 0.87, -2.1, i
Entry for O=C1OCC2OC(O)C(O)C(O)C2OC(=O)c2cc(O)c(O)c(O)c2-c2c(O)c(O)c3oc(=O)c4c(c(O)c(O)c5oc(=O)c2c3c54)-c2c1cc(O)c(O)c2O (centres undefined) → 66, nt, nt, nt, 1, nt, i

Next section:
canonical_smiles	RGS16-Gao	INS promoter inh cell count	INS promoter inh	PKD1 kinase inh	HSV replic up primary fold	GALR2 ag	HSV replic up
O=C(Nc1cccc(NC(=O)c2cccnc2Cl)c1)c1ccco1	119	117	-15	-9	0.94	-3.1	i
CC1CCCCN1C(=O)CSc1nnc(-c2cccnc2)n1C1CCCCC1 (centres undefined)	96	78	-281	3	0.92	0.4	i
CS(=O)(=O)N1CCN(C(=O)c2cc(-c3cccnc3)nc3ccc(Br)cc23)CC1	98	nt	nt	-4	1.1	nt	i
CC1Cc2ccccc2N1CC(=O)Nc1cccc(S(N)(=O)=O)c1 (centres undefined)	103	142	25	-6	1	nt	i
Cn1nccc1C(=O)N1CCc2c([nH]c3ccccc23)C1c1ccc(F)cc1 (centres undefined)	102	111	36	6	0.91	nt	i
COCC(C)n1c(C)cc(C(=O)COC(=O)c2ccc(N3CCCC3=O)cc2)c1C (centres undefined)	103	52	-10	-3	0.95	-2.4	i
NC(=O)c1ccc(NS(=O)(=O)c2ccccc2F)cc1	98	nt	nt	3	1.1	-0.6	i
COc1cc(/C=C/c2nc(N)nc(-c3ccccc3O)n2)cc(OC)c1OC	102	153	32	-6	0.85	2.6	i
CCOC(=O)c1c(C)n(C)c2ccc(O)c(CN3CCN(C)CC3)c12	345	nt	nt	-3	0.69	-1.1	i
COC(=O)c1ccc(NC(=O)c2snnc2-c2ccccc2)cc1	95	nt	nt	2	0.98	nt	i
CC(Sc1nnc(Cc2ccc3c(c2)OCO3)o1)C(N)=O (centres undefined)	95	nt	nt	1	1	nt	i
CCc1ccc(NC(=O)C(C)Oc2nnc(-c3cccs3)c(-c3cccs3)n2)cc1 (centres undefined)	100	111	0	0	0.85	-3.4	i
C/C(=N/OC(=O)c1cccc(C(F)(F)F)c1)c1cnccn1	95	nt	nt	-2	0.95	nt	i
COc1nccnc1NS(=O)(=O)c1ccc(NC(=S)NC(=O)/C=C/c2ccccc2)cc1	97	nt	nt	-3	0.92	0.6	i
COc1cc(C(=O)Nc2ccc(S(=O)(=O)N(C)c3ccccc3)cc2)cc(OC)c1OC	96	95	13	2	0.85	-0.5	i
O=[N+]([O-])c1ccc(OCC(O)CN(CCO)CCO)cc1 (centres undefined)	100	171	-6	-9	1	-0.2	i
O=c1sc(/C=N/Nc2ccccc2)c(Cl)n1Cc1ccccc1	101	104	21	-1	1.1	-0.2	i
Cc1ccc2oc(=O)c3cc(C(=O)N4CCN(C)CC4)sc3c2c1	94	nt	nt	nt	1.1	nt	i
Cc1nc2ncnn2c(N2CCC(C(=O)NC3CCCC3)CC2)c1Cc1ccccc1	100	122	-19	-3	1	-2.9	i
Cn1nc(C(=O)N2CCOCC2)c2ccccc2c1=O	nt	111	43	4	0.93	-3.5	i
CCOC(=O)CSc1nnc(Cn2nnc(-c3ccccc3)n2)n1CC	100	150	16	-2	0.96	-2.2	i
Cc1cc(C)n(C(=O)/C(C#N)=C/N(C)C)n1	99	108	31	-6	nt	nt	nt
Cc1ccc(-n2ncc3c2ncn2nc(-c4ccco4)nc32)c(C)c1	97	121	-3	-4	1	4.2	i
COC(=O)Cc1nc(Nc2ccccc2)sc1C	92	nt	nt	nt	0.96	nt	i
CCOC(=O)c1cnc(-c2ccccc2)nc1C(F)(F)F	100	nt	nt	-2	0.87	nt	i
COc1ccc(C(C)(C)C)cc1NC(=O)c1ccoc1C	99	61	-67	-5	1.3	-1.4	i
COc1ccc(OC)c(Nc2nc3nonc3nc2N2CCCCC2)c1	99	nt	nt	-4	nt	-0.7	nt
Cn1c(=O)c2c(ncn2CCC(=O)N/N=C/c2ccncc2)n(C)c1=O	99	nt	nt	nt	1.2	nt	i
COCCN(C(=O)C1CCC1)c1nnc(-c2cccnc2)s1	83	nt	nt	3	0.88	-0.5	i
N#C/C(=C\c1ccc([N+](=O)[O-])cc1)C(=O)NCCCn1ccnc1	105	nt	nt	nt	0.99	nt	i
O=c1oc(-c2ccccc2[N+](=O)[O-])nc2ccccc12	58	113	-4	-8	0.87	-2.3	i
Cc1nonc1C(=O)N/N=C/c1ccncc1	98	150	-35	3	1	nt	i
CCN(C(=O)Cn1nc(C(=O)O)c2ccccc2c1=O)C1CCCCC1	100	nt	nt	-5	1.1	nt	i
COc1cc(C2NC(=O)NC(O)(C(F)(F)F)C2C(C)=O)cc(OC)c1OC (centres undefined)	104	nt	nt	0	nt	-0.7	nt
Cc1ccc(N2CC(C(=O)Nc3ccccc3C(=O)NC3CCCCC3)CC2=O)cc1C (centres undefined)	nt	77	5	-3	0.84	-0.3	i
CC(=O)Nc1nnc(SCc2ccc(F)cc2)s1	96	90	26	-11	1.1	-0.6	i
COc1cc(OC)cc(-c2cc3nc(C)c(CCC(=O)NCc4ccccc4)c(C)n3n2)c1	107	nt	nt	nt	0.89	nt	i
CCc1cc(C(=O)Cc2ccc(F)cc2)c(O)cc1O	102	nt	nt	6	1.1	0.2	i
COC(=O)COc1cccc2c(=O)n(CC(=O)NCCc3ccc(OC)c(OC)c3)ccc12	87	77	-2	-10	1	-1.3	i
COc1ccc(-c2nnc(SC)n2C)cc1	98	nt	nt	-20	0.89	0.0	i
CCOC(=O)c1ccc(NC(=O)C(C)Sc2nc(O)c(-c3ccccc3)c(=O)[nH]2)cc1 (centres undefined)	103	nt	nt	-2	0.96	nt	i
CCOc1ccc2nc(NC(=O)NC3CCCCC3)sc2c1	104	nt	nt	3	0.85	nt	i
CC(=O)c1cc(CN2CCN(CCC(C)C)C(CCO)C2)cs1 (centres undefined)	101	nt	nt	nt	0.86	nt	i
CSCc1nnc(NC(=O)c2ccc(S(=O)(=O)N(C)C)cc2)o1	99	nt	nt	-3	1.1	nt	i
O=C(Cc1ccccc1[N+](=O)[O-])NCc1ccco1	100	nt	nt	2	0.95	nt	i
Cc1cc(N/C(=N\S(=O)(=O)c2ccc(F)cc2F)c2ccccc2)no1	106	100	-20	-3	nt	-0.8	nt
CCC(=O)NC1=C(C#N)C2(CCCC2)Cc2ccccc21	104	106	30	2	0.88	-1.7	i
